Yeast UUG start: yeast start codon fidelity modulation. activity score, % at 18.7 µM. AID 602363. S. cerevisiae UUG-firefly luciferase reporter, luminescence/redox ratio. actives 0.13% (n = 350,000);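 active = replicate mean at a twofold rise or more, about +100% in these data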;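 note: firefly luciferase made from a UUG start codon reports start codon fidelity; reporter light over untreated wells divided by growth signal over untreated wells; some hits fall short of that in this replicate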
Env fusion inh: HIV envelope-mediated fusion inhibition | inhibition, % at 12.3 µM | HeLa-JRFL Env/CEM21 cell fusion, luciferase | actives 1.1% (n = 360,000);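 active = mean replicate inhibition score of at least 50 and every replicate individually at or above 50; inconclusive = only one of the two criteria met; inactive = mean below 50 and not all replicates reaching 50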;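 note: 0% = plate neutral controls and 100% = maraviroc near 300 nM; one replicate is shown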
eIF4H FP inh: inhibitors of RNA binding by human eIF4H | eIF4H fluorescence polarization binding assay | inhibition, % at 35 µM | actives 0.94% (n = 290,000) | Q15056 | AID 2012;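 active = 50% or more with normal probe brightness, or confirmed in later tests; inconclusive = above 50% with abnormal brightness, or retests that disagree; inactive = below 50% or failed in later tests; about a fifth of its hits are not listed in these tables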;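 note: calls also rest on retests at 20 µM and on dose response follow-up; 0% = protein and probe with vehicle and 100% = probe without protein; strong numbers were not always called active; many hits fall short of the cut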
PABP polyA inh: blocks human PABP binding to poly(A) RNA; inhibition, % at 35 µM; actives 1% (n = 290,000); P11940; AID 2014; fluorescence polarization;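 active = 50% or more with normal probe brightness, or confirmed in later tests; inconclusive = above 50% with abnormal brightness, or retests that disagree; inactive = below 50% or failed in later tests; about a fifth of its hits are not listed in these tables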;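 note: calls also rest on retests at 20 µM and on dose response follow-up; controls were probe without protein and protein plus probe with vehicle; some compounds called inactive have numbers as strong as hits; many hits fall short of the cut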
Target sequence (P11940 whole entry, looked up): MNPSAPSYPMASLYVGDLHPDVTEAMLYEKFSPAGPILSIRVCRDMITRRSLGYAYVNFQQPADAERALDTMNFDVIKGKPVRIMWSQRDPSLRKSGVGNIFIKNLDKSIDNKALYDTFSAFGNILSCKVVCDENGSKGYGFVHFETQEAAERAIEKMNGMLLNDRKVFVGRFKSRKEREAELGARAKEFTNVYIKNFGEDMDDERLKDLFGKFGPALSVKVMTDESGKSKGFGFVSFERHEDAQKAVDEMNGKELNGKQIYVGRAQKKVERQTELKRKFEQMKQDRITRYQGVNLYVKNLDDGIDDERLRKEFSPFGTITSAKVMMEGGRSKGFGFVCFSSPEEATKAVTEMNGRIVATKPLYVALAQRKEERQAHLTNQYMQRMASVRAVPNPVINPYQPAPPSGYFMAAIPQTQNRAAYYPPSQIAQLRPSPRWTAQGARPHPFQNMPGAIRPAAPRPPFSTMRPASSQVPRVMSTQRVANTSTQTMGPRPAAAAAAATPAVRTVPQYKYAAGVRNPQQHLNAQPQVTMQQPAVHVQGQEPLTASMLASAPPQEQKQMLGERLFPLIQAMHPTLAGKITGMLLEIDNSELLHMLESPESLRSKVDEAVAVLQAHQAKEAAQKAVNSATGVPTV
Rce1 inh: blocks yeast Ras-converting enzyme | Q03530 | yeast membranes, quenched prenylated peptide cleavage fluorescence | calls only | actives 0.27% (n = 290,000);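 active = fall in fluorescence gain of 50% or more versus controls, with final raw signal at or below 3038400; inconclusive = same 50% fall but final raw signal above 3038400; inactive = fall in fluorescence gain under 50%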;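 note: plate controls were neutral control wells for no effect and wells lacking membranes for full effect; tested at 10 µM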
CSC inhib: blocks cancer stem cells; cancer stem cell-like cells viability, luminescence; inhibition, % at 7.5 µM; actives 1.1% (n = 300,000); AID 2717;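 active = mean at 75% or more and at least half the replicates too; inconclusive = mean and replicates disagree; tested in HMLE shEcad cells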;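 note: 0% = median of negative and 100% = median of positive control wells; the first replicate is given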
MT1-MMP act inh: blocks activation of human MT1-MMP | P50281 | HT1080 RFP-PRO-GFP cells, GFP/RFP ratio fluorescence, overnight; percent of plate control window, DMSO zero | GFP/RFP ratio change, % at 20 µM | actives 0.061% (n = 360,000) | AID 651647;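 active = GFP/RFP ratio change of at least 30% with cell ATP level not reduced by more than half and red fluorescence within 50% of control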; note: strong numbers were not always called active
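Assay system: HT1080 RFP-PRO-GFP cells. Benchmarks: DMSO vehicle wells and RFP-L50D-GFP reporter cell wells. Times: overnight cell settling, then overnight compound exposure, 37 °C, 5% CO2. Compound: 20 µM single dose, 1% DMSO. Read-out basis: GFP/RFP fluorescence ratio.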
MT1-MMP act inh RFP: also measured in MT1-MMP act inh; calls as there; RFP signal change, %; measured here: RFP expression control read;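 0 = vehicle wells; hits needed this value within 50% of zero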
Active calls of the source: *.

For CC(C)(C)Cc1cc(N)on1 the results were Env fusion inh 13, eIF4H FP inh -11, PABP polyA inh -16, Rce1 inh inactive, CSC inhib -8, MT1-MMP act inh -6 and MT1-MMP act inh RFP -2.
`O=C(CCc1ccccc1)NNC(=O)CCc1ccccc1` gave Yeast UUG start -6, Env fusion inh -17, eIF4H FP inh -1, PABP polyA inh -4, Rce1 inh inactive, CSC inhib 3, MT1-MMP act inh -2 and MT1-MMP act inh RFP 1.
For Cc1cc(NC(=O)CSc2nc3ccccc3n2CC(=O)N2CCC(C)CC2)no1 the results were Yeast UUG start -4, eIF4H FP inh -4, PABP polyA inh 4, Rce1 inh inactive, CSC inhib 3, MT1-MMP act inh -3 and MT1-MMP act inh RFP 0.
For Cc1ccc[n+](CC(=O)c2ccc(-c3ccccc3)cc2)c1 the results were Yeast UUG start -27, Env fusion inh 18, eIF4H FP inh 3, PABP polyA inh 10, Rce1 inh inactive, CSC inhib -12, MT1-MMP act inh 3 and MT1-MMP act inh RFP -1.
`Cc1cc(C(=O)N(C)CC(=O)Nc2ccc(F)c(F)c2F)no1` gave Yeast UUG start 10, Env fusion inh 11, eIF4H FP inh -10, PABP polyA inh 10, Rce1 inh inactive, CSC inhib 15, MT1-MMP act inh -1 and MT1-MMP act inh RFP 1.
`Cn1c(-n2c(-c3ccco3)nc3ccccc3c2=O)nc2ccccc21` gave Yeast UUG start -15, eIF4H FP inh -7, PABP polyA inh 6, Rce1 inh inactive, CSC inhib 17, MT1-MMP act inh -3 and MT1-MMP act inh RFP -3.
`CSc1nnc(COc2ccc(C)cc2)n1N` gave Yeast UUG start -15, Env fusion inh -95, eIF4H FP inh -2, PABP polyA inh 6, Rce1 inh inactive, CSC inhib -10, MT1-MMP act inh 5 and MT1-MMP act inh RFP 5.
Screening NC(=O)C1CCN(C(=O)COCc2cc(-c3ccc4c(c3)OCO4)on2)CC1 returned Yeast UUG start -16, Env fusion inh -11, eIF4H FP inh -16, PABP polyA inh -8, Rce1 inh inactive, CSC inhib 21, MT1-MMP act inh 0 and MT1-MMP act inh RFP -1.
O=C(O)c1cscc1-c1cccc2ccccc12 was read as Yeast UUG start 3, Env fusion inh 1, MT1-MMP act inh 2 and MT1-MMP act inh RFP 6.
For C=CCNC(=S)N/N=C/c1ccc(-c2ccc(Cl)cc2Cl)o1 the results were Yeast UUG start -3, Env fusion inh -234, Rce1 inh inactive, CSC inhib 39, MT1-MMP act inh 3 and MT1-MMP act inh RFP 3.
Screening O=[N+]([O-])c1ccc(N2CCOCC2)nc1 returned Yeast UUG start -18, eIF4H FP inh 4, PABP polyA inh -11, Rce1 inh inactive, CSC inhib -32, MT1-MMP act inh 5 and MT1-MMP act inh RFP 2.
COCOc1ccc(C=O)c(OCOC)c1 was read as Yeast UUG start -4, Rce1 inh inactive, CSC inhib -11, MT1-MMP act inh -3 and MT1-MMP act inh RFP 4.
Screening CCN(CC)S(=O)(=O)c1ccc(NC(=O)c2cc(C(=O)OC)cc([N+](=O)[O-])c2)cc1 returned eIF4H FP inh 8, PABP polyA inh 1, Rce1 inh inactive, CSC inhib 1, MT1-MMP act inh 9 and MT1-MMP act inh RFP 0.
Screening CCCCn1nnnc1SCC(=O)NCc1ccco1 returned Yeast UUG start 7, Env fusion inh 4, eIF4H FP inh -3, PABP polyA inh -2, Rce1 inh inactive, CSC inhib 4, MT1-MMP act inh -5 and MT1-MMP act inh RFP 5.
`CCOC(=O)C1=C(C)N=C2SCCC(=O)N2C1c1sccc1C` (configuration not stated) gave Yeast UUG start -12, eIF4H FP inh 9, PABP polyA inh 4, Rce1 inh inactive, CSC inhib 15, MT1-MMP act inh -7 and MT1-MMP act inh RFP -4.
Screening Cc1ccc(NC(=O)c2cc(C)nc3ccccc23)c(Br)c1 returned Yeast UUG start -11, Env fusion inh 0, eIF4H FP inh -4, PABP polyA inh -3, Rce1 inh inactive, CSC inhib -7, MT1-MMP act inh 3 and MT1-MMP act inh RFP -4.
COc1cccc(CNC(=O)COC(=O)c2ccc(C(=O)c3ccccc3)cc2)c1 was read as Yeast UUG start 5, Env fusion inh 4, MT1-MMP act inh 7 and MT1-MMP act inh RFP 2.
For NC(=O)NC1CCCc2c1[nH]c1ccc(Cl)cc21 (configuration not stated) the results were Yeast UUG start -15, Env fusion inh 28, eIF4H FP inh -3, PABP polyA inh 15, Rce1 inh inactive, CSC inhib -1, MT1-MMP act inh 1 and MT1-MMP act inh RFP -3.
`Cc1ccc(NC(=O)C(C)SCC(=O)Nc2ccc(F)cc2)cc1S(=O)(=O)N1CCOCC1` (configuration not stated) gave Env fusion inh 34, Rce1 inh inactive, CSC inhib 16, MT1-MMP act inh -3 and MT1-MMP act inh RFP -1.
Screening O=C(CC1SC(N2CCOCC2)=NC1=O)Nc1ccc(Cl)cc1 (configuration not stated) returned Yeast UUG start -11, Env fusion inh 51, MT1-MMP act inh -1 and MT1-MMP act inh RFP 4.
CCOC(=O)C1(Cc2cccc(OC)c2)CCCN(C(=O)c2cc(C)on2)C1 (configuration not stated) was read as Yeast UUG start -9, Env fusion inh -18, eIF4H FP inh 6, PABP polyA inh 0, Rce1 inh inactive, CSC inhib 1, MT1-MMP act inh -2 and MT1-MMP act inh RFP -4.
OCC(CO)(CO)n1cnnn1 was read as Yeast UUG start -17, Env fusion inh -15, eIF4H FP inh 8, PABP polyA inh -11, Rce1 inh inactive, CSC inhib -5, MT1-MMP act inh -4 and MT1-MMP act inh RFP 3.
O=C(C[n+]1ccc(C(=O)NCc2ccccc2)cc1)c1ccc2c(c1)OCCO2 was read as Env fusion inh -9, eIF4H FP inh -6, PABP polyA inh 2, Rce1 inh inactive, CSC inhib 14, MT1-MMP act inh 0 and MT1-MMP act inh RFP -2.
`Cc1cccc(-c2cc3nc4c(c(NCc5ccco5)n3n2)CCCC4)c1` gave Yeast UUG start -7, Env fusion inh -32, eIF4H FP inh -11, PABP polyA inh -8, Rce1 inh inactive, CSC inhib 117*, MT1-MMP act inh -7 and MT1-MMP act inh RFP -11.
`Cc1cccn2c(CN3CCNC(=O)CC3)c(C(=O)N(C)CCc3ccccc3)nc12` gave Env fusion inh 6, eIF4H FP inh -8, PABP polyA inh -2, Rce1 inh inactive, CSC inhib -10, MT1-MMP act inh -2 and MT1-MMP act inh RFP 0.
Cc1ccc(-c2nnc(CSc3nnc(COc4ccccc4)n3-c3ccc(C)cc3)o2)cc1 was read as Yeast UUG start -14, Env fusion inh 5, eIF4H FP inh 5, PABP polyA inh 7, Rce1 inh inactive, MT1-MMP act inh -2 and MT1-MMP act inh RFP -4.
CCCCN(C)C/C(O)=C(\C#N)c1nc(-c2ccccc2)cs1 was read as Yeast UUG start -14, Env fusion inh -27, eIF4H FP inh -4, PABP polyA inh 6, Rce1 inh inactive, CSC inhib -12, MT1-MMP act inh 1 and MT1-MMP act inh RFP 5.
CC(=O)c1cccc(NC(=O)CSC(=O)c2ccccc2)c1 was read as Yeast UUG start -18, Env fusion inh 2, eIF4H FP inh -5, PABP polyA inh 2, Rce1 inh inactive, CSC inhib 3, MT1-MMP act inh -3 and MT1-MMP act inh RFP 7.
`COc1cccc(CNC(=O)CCC(=O)n2ncc3cc(C)ccc32)c1OC` gave Yeast UUG start -17, Env fusion inh -29, eIF4H FP inh -11, PABP polyA inh -6, Rce1 inh inactive, CSC inhib -6, MT1-MMP act inh -8 and MT1-MMP act inh RFP 2.
For CNS(=O)(=O)c1cc(-c2nnc(N3CCOCC3)c3ccccc23)ccc1C the results were Yeast UUG start 3, Env fusion inh -11, CSC inhib -5, MT1-MMP act inh 0 and MT1-MMP act inh RFP -3.
`Cc1nc(N2CCCCC2)c(C#N)c(C)c1[N+](=O)[O-]` gave Env fusion inh -16, eIF4H FP inh -6, PABP polyA inh 2, Rce1 inh inactive, CSC inhib -1, MT1-MMP act inh -1 and MT1-MMP act inh RFP -3.
COc1ccccc1CN(C)CC(=O)Nc1cccc(S(=O)(=O)N2CCCCC2)c1 was read as Yeast UUG start -5, Env fusion inh inconclusive, MT1-MMP act inh 2 and MT1-MMP act inh RFP -8.
`CCN1CCN(CC(=O)Nc2ccc(Cl)c(Cl)c2)C(=O)C1=O` gave Yeast UUG start -27, Env fusion inh 20, eIF4H FP inh 0, PABP polyA inh -1, Rce1 inh inactive, CSC inhib -4, MT1-MMP act inh -1 and MT1-MMP act inh RFP 3.
O=C(CSc1ccc(Br)cc1)N1CCN(S(=O)(=O)c2ccccc2)CC1 was read as Yeast UUG start 2, Env fusion inh 2, eIF4H FP inh -13, PABP polyA inh 3, Rce1 inh inactive, CSC inhib 15, MT1-MMP act inh -2 and MT1-MMP act inh RFP -3.
Cc1cc(C)cc(NC(=O)c2ccc(NC3=NC4CS(=O)(=O)CC4S3)cc2)c1 (configuration not stated) was read as Yeast UUG start -10, Env fusion inh 5, eIF4H FP inh -13, PABP polyA inh -9, Rce1 inh inactive, CSC inhib 8, MT1-MMP act inh 6 and MT1-MMP act inh RFP 7.
Screening COc1cccc(N2CCN(S(=O)(=O)c3cc4c(cc3C)N(C)CCO4)CC2)c1 returned Yeast UUG start -16, Env fusion inh -9, eIF4H FP inh 6, PABP polyA inh 0, Rce1 inh inactive, CSC inhib 19, MT1-MMP act inh 0 and MT1-MMP act inh RFP 1.
Screening O=C(c1cc2ccccc2oc1=O)N1CCN(S(=O)(=O)c2ccccc2)CC1 returned Yeast UUG start 5, Env fusion inh 8, eIF4H FP inh 10, PABP polyA inh 18, Rce1 inh inactive, CSC inhib -8, MT1-MMP act inh 0 and MT1-MMP act inh RFP 2.
Screening COc1ccc(S(=O)(=O)N2CCN(C(=O)CC3CC4CCC3C4)CC2)cc1 (configuration not stated) returned Yeast UUG start -14, CSC inhib -6, MT1-MMP act inh 0 and MT1-MMP act inh RFP -3.
COc1ccc2c(CC(=O)N[C@@H](Cc3ccccc3)C(=O)O)cc(=O)oc2c1 was read as Yeast UUG start -7, Env fusion inh -9, eIF4H FP inh -4, PABP polyA inh 1, Rce1 inh inactive, CSC inhib -9, MT1-MMP act inh 3 and MT1-MMP act inh RFP 3.
N#C/C(=C/c1ccc(Br)o1)C(N)=O was read as Yeast UUG start -21, eIF4H FP inh 6, PABP polyA inh -7, Rce1 inh inactive, CSC inhib 0, MT1-MMP act inh 4 and MT1-MMP act inh RFP 4.
`COc1ccc(C(=O)N2CCOC2CNC(=O)C(=O)NCCc2ccccc2OC)cc1` (configuration not stated) gave Yeast UUG start -11, Env fusion inh -1, eIF4H FP inh -7, PABP polyA inh -10, Rce1 inh inactive, CSC inhib -1, MT1-MMP act inh 0 and MT1-MMP act inh RFP -3.
`CCCCNc1nc2ccccc2n1CC(=O)Nc1c(C)cccc1CC` gave Yeast UUG start -8, eIF4H FP inh 7, PABP polyA inh 12, Rce1 inh inactive, CSC inhib 37, MT1-MMP act inh 6 and MT1-MMP act inh RFP 5.
`CCCn1c(N)c(N(CCOC)C(=O)CSCC(=O)Nc2cccc(C)c2)c(=O)[nH]c1=O` gave Rce1 inh inactive, CSC inhib 2, MT1-MMP act inh -8 and MT1-MMP act inh RFP 2.
Cc1cc(NC(=O)CSc2nc(N)c(NC(=O)c3ccc(F)c(F)c3)c(=O)[nH]2)no1 was read as Yeast UUG start -30, Env fusion inh 12, eIF4H FP inh 28, PABP polyA inh 5, Rce1 inh inactive, CSC inhib -9, MT1-MMP act inh 0 and MT1-MMP act inh RFP 1.
Screening Cc1ccc(NCCC#N)cc1C returned Yeast UUG start -23, eIF4H FP inh 0, PABP polyA inh -5, Rce1 inh inactive, CSC inhib -13, MT1-MMP act inh -5 and MT1-MMP act inh RFP 0.

Assay outcomes: PubChem, several laboratories

No enrichment for hits (roughly 2.9% active in at least one column).
